Source: PubChem (several laboratories)
PKD1 kinase inh: inhibitors of human PKD1 kinase, biochemical, fluorescence polarization; Serine/threonine-protein kinase D1 (Homo sapiens), Q15139; 200,000 tested, 0.056% active; PKD1 kinase fluorescence polarization assay; inhibition, %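 (about 10 µM by stock and volumes)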; AID 797, 2007;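 active = inhibition of 50% or more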;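 also: controls were vehicle for no effect and a reference inhibitor for full effect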
INS promoter inh: inhibitors of insulin promoter-driven GFP, primary screen, imaging, TRM-6 cells (human fetal islet line), eGFP reporter, cell count; 130,000 tested, 0.9% active; reporter expression induced with tamoxifen; inhibition, % at 2 µM;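 active = inhibition above the mean plus 3 SD, with well images judged a real hit on visual review, cut at about 60% in these data, passing the limit was not always enough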
GALR2 ag: GALR2 receptor agonists, primary screen, cell-based; Galanin receptor type 2 (Homo sapiens), O43603; GALR2-expressing cells, agonist activation read-out; activation, %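 (tested at 5 µM)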; 140,000 tested, 0.48% active; AID 803, 2007;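 active = above mean plus 3 SD of all compounds, about 5% in these data, not always enough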;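 also: 0% = vehicle buffer wells and 100% = reference agonist at full effect; tested in CHO reporter cells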
Target sequence (O43603 whole entry, looked up): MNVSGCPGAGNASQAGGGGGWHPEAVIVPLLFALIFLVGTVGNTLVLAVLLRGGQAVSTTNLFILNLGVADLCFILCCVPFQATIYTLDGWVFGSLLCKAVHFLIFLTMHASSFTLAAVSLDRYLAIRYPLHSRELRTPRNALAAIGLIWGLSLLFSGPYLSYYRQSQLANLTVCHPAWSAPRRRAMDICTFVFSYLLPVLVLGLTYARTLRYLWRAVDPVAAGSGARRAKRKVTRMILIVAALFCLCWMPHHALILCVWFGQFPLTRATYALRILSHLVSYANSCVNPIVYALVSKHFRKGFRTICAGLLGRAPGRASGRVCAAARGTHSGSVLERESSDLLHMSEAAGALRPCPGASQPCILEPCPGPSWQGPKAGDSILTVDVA
RGS16-Gao HTS: modulators of RGS16 binding to Galphao, primary screen, biochemical, human proteins, multiplexed bead flow cytometry. Regulator of G-protein signaling 16 (Homo sapiens) + Guanine nucleotide-binding protein …. bead-based flow cytometry RGS16-Galphao binding, fluorescence; actives lie on both sides. binding response (% of control), % at 10 µM. 220,000 tested, 0.38% active. AID 1441, 2008;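 active = below 25% or above 175%, edge rows of some plates excepted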;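 also: Galphao activated by GDP with aluminum fluoride before binding; 100% = wells without compound and 0% = beads without RGS; some results beyond the cut were filed as inactive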
Target sequence (O15492 whole entry, looked up): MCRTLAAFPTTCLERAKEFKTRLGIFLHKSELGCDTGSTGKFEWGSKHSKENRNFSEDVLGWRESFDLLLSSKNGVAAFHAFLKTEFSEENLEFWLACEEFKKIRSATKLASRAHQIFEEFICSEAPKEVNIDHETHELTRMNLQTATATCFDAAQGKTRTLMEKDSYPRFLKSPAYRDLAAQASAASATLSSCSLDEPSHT
Target sequence (P09471 whole entry, looked up): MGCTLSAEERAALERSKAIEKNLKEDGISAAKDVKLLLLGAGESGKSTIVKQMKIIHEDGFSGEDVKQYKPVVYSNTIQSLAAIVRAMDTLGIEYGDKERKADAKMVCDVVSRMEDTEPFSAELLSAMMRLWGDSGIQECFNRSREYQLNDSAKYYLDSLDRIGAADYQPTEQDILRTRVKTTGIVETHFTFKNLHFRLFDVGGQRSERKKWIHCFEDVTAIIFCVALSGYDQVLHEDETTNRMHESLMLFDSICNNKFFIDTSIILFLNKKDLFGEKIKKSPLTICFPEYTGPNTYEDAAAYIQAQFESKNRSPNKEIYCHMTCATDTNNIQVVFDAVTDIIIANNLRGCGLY
HSV replic up: enhancers of HSV replication in host cells, fold increase, host cell viability; HSV replication augmentation in cells; maximum fold increase; 220,000 tested, 0.005% active; AID 1956, 2009;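 active = peak rise of 1.5-fold or more in the series; tested in PC3 cells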;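 also: first round at 10 µM; read as green reporter fluorescence; hits show the peak of a series up to 25 µM; 1 = signal of infected wells without compound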
INS promoter inh cell count: second read-out of INS promoter inh, no call of its own (marks repeat the call); normalized cell count, %; measured here: cell count, toxicity; reference of the scale not given here;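 cells exposed to compound for 48 h; stained nuclei by imaging scaled within each plate; lower means fewer cells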
HSV replic up primary fold: recorded beside HSV replic up, whose call it bears; fold increase; compound at 10 µM; measured here: primary screen fold increase 10 uM; tested in PC3 cells;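 GFP signal in the first replicate; 1 = infected wells without compound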
Numbers without * were called inactive; i = inactive; · = not tested or not shown.

SMILES	PKD1 kinase inh	INS promoter inh	INS promoter inh cell count	GALR2 ag	RGS16-Gao HTS	HSV replic up	HSV replic up primary fold
Cc1ccc(-c2noc(-c3cc(C(C)(C)C)nn3Cc3ccccc3)n2)cc1	·	·	·	·	102.7	i	0.96
CC(C)(C)NS(=O)(=O)c1ccc(NS(=O)(=O)Cc2ccccc2)cc1	-1.3	6.7	118.0	1.0	102.5	i	0.89
CC(=O)Nc1ccccc1C(=O)C(=O)NCCc1ccccc1	-7.3	-20.0	59.3	·	83.2	i	0.97
Cc1cc(NC(=O)NC(=O)c2cccc(OC(F)(F)C(F)F)c2)n[nH]1	-1.4	-40.0	132.4	-0.7	104.0	i	0.95
Cc1ccc(S(=O)(=O)N2CCN(C(=O)CN3CCN(C)CC3)C2)cc1	-3.1	·	·	-2.2	94.6	i	0.98
CCC(=O)Nc1sc(C(=O)Nc2ccccc2OC)c(C)c1C(=O)OC	-2.3	-25.0	86.9	·	102.8	i	0.93
N#Cc1ccc(CSc2nnc(-c3ccncc3)n2CCc2ccccc2)cc1	0.9	·	·	-0.5	110.8	i	0.79
CCN1C(=O)/C(=C\c2ccc3c(c2)OCO3)C(C(=O)OC)=C1C	0.4	-4.2	105.7	-1.1	105.3	i	1
Cc1nnc(SCC(=O)N2CCCc3ccccc32)[nH]c1=O	-0.7	-113.3	87.0	-1.8	99.3	i	1
COc1ccc([N+](=O)[O-])cc1CSc1nnc(NC(C)=O)s1	7.0	·	·	·	102.1	i	0.99
CN(CC(=O)OCC(=O)NC(=O)c1cccn1C)S(=O)(=O)c1ccc(Cl)cc1	-14.6	16.2	106.0	-1.6	100.1	i	0.84
CCNS(=O)(=O)c1ccc(NC(=O)Cc2ccc(F)cc2)cc1	-4.3	28.2	60.0	-1.4	100.7	i	0.82
Cc1nnc(N(C)C(=O)c2cnccn2)s1	-0.1	·	·	·	109.8	i	0.99
COCCN(CCOC)S(=O)(=O)c1ccc(/C(O)=C(\C#N)c2nc3ccccc3[nH]2)cc1	-4.4	·	·	·	93.3	i	0.82
Cc1ccc(NC(=O)C2CCCN2S(=O)(=O)c2cccc3cccnc23)cc1F (centres undefined)	-5.1	·	·	-1.0	107.0	i	0.94
Cc1ccc(NCC(=O)N/N=C/c2ccncc2)cc1	-3.9	·	·	·	102.5	i	0.89
O=C(CCCOc1ccc(Cl)cc1)N1CCOCC1	-2.9	-43.2	142.1	-0.1	94.9	i	0.95
COc1ccc(OCCNc2cc(Cl)ccc2[N+](=O)[O-])cc1	-12.5	-4.2	83.4	-3.7	98.1	i	0.8
CCCNC(=O)NC(=O)CSc1nc2cc(C(=O)OC)ccc2c(=O)n1-c1ccccc1	2.5	22.0	87.2	-1.2	108.7	i	0.92
Cc1ccc(-c2nnc(C)c(N3CCOCC3)n2)cc1	-5.1	5.9	83.0	-1.0	106.7	i	0.94
Nc1nonc1OCCN1CCN(c2ccc([N+](=O)[O-])c3cccnc23)CC1	·	·	·	·	100.3	i	0.96
CCN(CC)c1ccc([C@H]2[C@@H]3CCCC[C@]3(O)CCN2CC(=O)NCc2ccco2)cc1	·	·	·	·	99.3	i	0.96
O=C(Nc1cc(=O)[nH]c2ncnn12)c1ccco1	·	·	·	·	102.8	i	0.59
COc1ccc(N2CCN(C(=O)c3ccc(NS(=O)(=O)c4cccc(F)c4)cc3)CC2)cc1	-6.4	35.0	121.2	-1.0	98.8	i	1.25
O=C(CCCn1c(=O)[nH]c2ccsc2c1=O)N1CCN(Cc2ccc3c(c2)OCO3)CC1	2.9	39.5	106.2	-0.9	102.2	i	0.94
COC(=O)c1nn(-c2c(C)n(C)n(-c3ccccc3)c2=O)cc1O	1.9	·	·	-1.5	100.2	i	0.76
Cc1ccc(C(=O)NC(=S)NCC(=O)c2ccccc2)cc1	4.0	·	·	-2.0	103.7	i	1.04
CC(=O)Nc1ccc(C(=O)OCc2ccc(Br)cc2)cc1	-8.0	38.5	122.9	-2.4	108.6	i	0.85
Cc1sc(NC(=O)CSc2nnc(C)c(=O)[nH]2)c(C#N)c1C	-19.1	42.9	77.0	-1.1	106.1	i	1.19
Cc1occc1-c1n[nH]c(=S)n1C	2.2	20.0	99.5	·	97.4	i	0.9
COc1ccc(OCCSc2nc(C)c(Cc3ccccc3)c(=O)[nH]2)cc1	-5.2	·	·	·	100.3	i	0.92
COC(=O)c1ccccc1NC(=O)NCc1ccncc1	0.8	·	·	·	102.8	i	0.89
O=S(=O)(Nc1ccc(Cl)cn1)c1ccccc1	-4.1	·	·	·	114.8	i	0.97
CC(=O)OCC(=O)[C@@]1(OC(C)=O)[C@@H](C)C[C@H]2[C@@H]3C[C@H](F)C4=CC(=O)C=C[C@]4(C)[C@@]3(F)[C@@H](O)C[C@@]21C	-3.1	-33.3	135.9	1.0	96.1	i	0.88
CCSc1nnc(NC(=O)Cn2cnc3ccccc3c2=O)s1	·	·	·	·	101.0	i	0.89
CCOC(=O)c1sc2nc(N3CCOCC3)c3c(c2c1N)CCN(C)C3	-17.9	-500.0	28.3	-0.2	104.4	i	1.02
CCN(CC)S(=O)(=O)c1ccc(C(=O)NCc2ccc3c(c2)cc(C)n3C)cc1	-4.6	·	·	-1.1	102.3	i	0.83
O=C(CSc1nnc(-c2cccs2)o1)OCc1ccccc1	·	·	·	·	113.5	i	0.99
COc1cc(C(=O)NCC(=O)OCC(=O)c2ccc[nH]2)cc(OC)c1OC	-3.3	-18.2	73.0	-0.8	99.5	i	1.06
CCc1ccc(S(=O)(=O)NCCc2csc(-c3cccnc3)n2)s1	3.4	·	·	0.2	103.6	i	0.88
CC(C)c1ccc(CN(C(=O)/C=C/c2ccco2)C2CCS(=O)(=O)C2)cc1 (centres undefined)	·	·	·	·	91.3	i	1
O=C(Nc1ccc(F)cc1F)c1c(C(F)(F)F)ccnc1Oc1cccc(C(F)(F)F)c1	·	·	·	·	103.3	i	0.87
COc1cccc(C(=O)C2CCCN(C/C=C/c3ccccc3OC)C2)c1 (centres undefined)	5.5	·	·	·	102.2	i	0.91
COc1ccc(-c2csc(Nc3ccc(S(=O)(=O)Nc4cc(OC)nc(OC)n4)cc3)n2)cc1	-0.6	·	·	-0.9	107.5	i	1
CCOc1ccc(C(CC(=O)O)NC(=O)c2sc3ccccc3c2Cl)cc1 (centres undefined)	-0.5	6.2	85.5	-1.2	103.0	i	1.04
CC1CCN(S(=O)(=O)N2CCC(C(=O)O)CC2)CC1	5.5	·	·	-1.2	98.0	i	0.9
Cc1csc(SCC(=O)Nc2cc(S(=O)(=O)N3CCCC3)ccc2Cl)n1	-6.0	0.0	190.1	-0.9	97.7	i	0.997
COc1ccc(CC(C)N2CCN(c3ccccc3OC)CC2)cc1OC (centres undefined)	-4.2	-7.4	114.0	-0.9	153.8	i	0.97
O=C(COC(=O)Cc1c(F)cccc1Cl)NCCC1=CCCCC1	-8.6	-31.2	102.8	0.4	102.7	i	0.96
CCOc1ccc(NC(=O)c2ccccc2OCC(=O)c2ccccc2)cc1	-3.2	27.0	109.2	-2.0	94.7	i	0.83
COc1cc(NC(=O)COC(=O)[C@@H]2CCCN2S(=O)(=O)c2ccc(Cl)cc2)cc(OC)c1OC	-1.4	-13.9	115.0	-2.9	104.1	i	0.83
CCNc1nc(SC(C)C(=O)OC)nc(N2CCOCC2)n1 (centres undefined)	-10.7	·	·	2.2	112.0	i	0.93
CSc1nc(C)c2c(n1)N(c1ccc(O)cc1)CC2	2.0	-21.4	190.5	·	100.7	·	·
NC(=O)C1=C[C@@H](c2coc3ccccc3c2=O)C[C@@H](OCc2ccc(CO)cc2)O1	10.2	·	·	·	95.4	·	·
COc1ccc(OCC(=O)Nc2cc3oc4ccccc4c3cc2OC)cc1	1.4	10.3	105.1	-1.3	105.4	i	0.91
COc1ccc(CCC(=O)Nc2ccc(C)c(S(=O)(=O)N(C)C)c2)cc1OC	0.6	-7.7	107.0	-1.8	107.5	·	·
CCN1CCN(C(c2cccs2)C(C)NC(=S)Nc2cc(C)ccc2C)CC1 (centres undefined)	·	·	·	·	103.7	i	0.9
O=C(COC(=O)c1nn(-c2ccccc2)c(=O)c2ccccc12)NC1CCS(=O)(=O)C1 (centres undefined)	1.2	8.3	109.0	·	109.5	i	0.97
O=C(CCN1C(=O)S/C(=C\c2cccs2)C1=O)Nc1nccs1	-4.0	·	·	·	99.8	i	0.88
NS(=O)(=O)c1ccc(NC(=O)CN2C(=O)C3C4C=CC(C4)C3C2=O)cc1 (centres undefined)	-8.1	-17.6	85.2	·	101.5	i	1.03

No new results follow: entries from further up.
SMILES	PKD1 kinase inh	INS promoter inh	INS promoter inh cell count	GALR2 ag	RGS16-Gao HTS	HSV replic up	HSV replic up primary fold
CCOc1ccc(C(CC(=O)O)NC(=O)c2sc3ccccc3c2Cl)cc1 (centres undefined)	-0.5	6.2	85.5	-1.2	103.0	i	1.04
CC1CCN(S(=O)(=O)N2CCC(C(=O)O)CC2)CC1	5.5	·	·	-1.2	98.0	i	0.9
Cc1csc(SCC(=O)Nc2cc(S(=O)(=O)N3CCCC3)ccc2Cl)n1	-6.0	0.0	190.1	-0.9	97.7	i	0.997
COc1ccc(CC(C)N2CCN(c3ccccc3OC)CC2)cc1OC (centres undefined)	-4.2	-7.4	114.0	-0.9	153.8	i	0.97
O=C(COC(=O)Cc1c(F)cccc1Cl)NCCC1=CCCCC1	-8.6	-31.2	102.8	0.4	102.7	i	0.96
CCOc1ccc(NC(=O)c2ccccc2OCC(=O)c2ccccc2)cc1	-3.2	27.0	109.2	-2.0	94.7	i	0.83
COc1cc(NC(=O)COC(=O)[C@@H]2CCCN2S(=O)(=O)c2ccc(Cl)cc2)cc(OC)c1OC	-1.4	-13.9	115.0	-2.9	104.1	i	0.83
CCNc1nc(SC(C)C(=O)OC)nc(N2CCOCC2)n1 (centres undefined)	-10.7	·	·	2.2	112.0	i	0.93
CSc1nc(C)c2c(n1)N(c1ccc(O)cc1)CC2	2.0	-21.4	190.5	·	100.7	·	·
NC(=O)C1=C[C@@H](c2coc3ccccc3c2=O)C[C@@H](OCc2ccc(CO)cc2)O1	10.2	·	·	·	95.4	·	·
COc1ccc(OCC(=O)Nc2cc3oc4ccccc4c3cc2OC)cc1	1.4	10.3	105.1	-1.3	105.4	i	0.91
COc1ccc(CCC(=O)Nc2ccc(C)c(S(=O)(=O)N(C)C)c2)cc1OC	0.6	-7.7	107.0	-1.8	107.5	·	·
CCN1CCN(C(c2cccs2)C(C)NC(=S)Nc2cc(C)ccc2C)CC1 (centres undefined)	·	·	·	·	103.7	i	0.9
O=C(COC(=O)c1nn(-c2ccccc2)c(=O)c2ccccc12)NC1CCS(=O)(=O)C1 (centres undefined)	1.2	8.3	109.0	·	109.5	i	0.97
O=C(CCN1C(=O)S/C(=C\c2cccs2)C1=O)Nc1nccs1	-4.0	·	·	·	99.8	i	0.88
NS(=O)(=O)c1ccc(NC(=O)CN2C(=O)C3C4C=CC(C4)C3C2=O)cc1 (centres undefined)	-8.1	-17.6	85.2	·	101.5	i	1.03

More structures.
SMILES	PKD1 kinase inh	INS promoter inh	INS promoter inh cell count	GALR2 ag	RGS16-Gao HTS	HSV replic up	HSV replic up primary fold
Fc1ccc2c(c1)C(c1ccc(N3CCOCC3)cc1)=NNC(c1cccs1)=N2	3.0	-10.0	109.7	-2.9	108.4	i	0.92
CC(Nc1cc(N2CCOCC2)ccc1[N+](=O)[O-])c1ccccc1 (centres undefined)	-2.0	·	·	-1.0	109.5	i	0.86
COc1cccc(-c2nc(CS(=O)(=O)c3ccccc3)no2)c1	5.2	-50.0	70.0	-3.5	109.2	i	0.95
O=C(CCCN1C(=O)c2ccccc2C1=O)Nc1ccc(S(=O)(=O)N2CCOCC2)cc1	-8.2	23.7	201.5	-0.8	98.1	i	0.97
COc1cc(/C=N/NC(=O)c2nc(-c3ccccc3)n(-c3ccccc3)n2)ccc1O	-2.6	11.8	74.9	-1.6	53.3	i	0.99
CCOc1cc(C=O)ccc1OCC(=O)NC(C)(C)C	2.6	·	·	·	105.3	i	0.93
Cc1cc(-c2n[nH]c(=S)n2/N=C/c2c[nH]c3ccccc23)n[nH]1	·	·	·	·	98.6	i	1.01
CC1(OC(=O)CCc2ccccc2)C(=O)C=C2C=C(c3ccc(C#N)cc3)N(C3CCCC3)C=C2C1=O (centres undefined)	·	·	·	·	98.0	i	0.74
